# UCH37 inh = inhibitors of human UCH37 deubiquitinase, primary screen, biochemical, Ub-AMC cleavage, fluorescence. AID 588478, 2011. actives 0.33% (n = 330,000). purified proteasome/UCH37. Ubiquitin carboxyl-terminal hydrolase isozyme L5 (Homo sapiens), Q9Y5K5. inhibition, % (test concentration not listed);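 active = mean of two replicates above 20%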;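 also: 0% = compound-free wells with enzyme and 100% = wells lacking proteasome; stock transfer was 100 nL into about 20 µL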
# Target sequence (Q9Y5K5 whole entry, looked up): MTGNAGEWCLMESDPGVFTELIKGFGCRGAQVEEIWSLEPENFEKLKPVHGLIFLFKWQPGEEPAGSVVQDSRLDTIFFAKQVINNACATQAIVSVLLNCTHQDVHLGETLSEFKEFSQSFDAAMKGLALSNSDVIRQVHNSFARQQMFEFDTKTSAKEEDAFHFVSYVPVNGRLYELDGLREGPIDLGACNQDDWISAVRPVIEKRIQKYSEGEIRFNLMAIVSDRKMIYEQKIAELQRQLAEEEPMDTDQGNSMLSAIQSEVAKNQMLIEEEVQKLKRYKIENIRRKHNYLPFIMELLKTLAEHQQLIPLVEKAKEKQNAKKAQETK
#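 Material: Human UCH37 enzyme supplied as purified proteasome complex | Schedule: 30 min compound-proteasome preincubation then 25 min substrate reaction, room temperature | Detection: AMC fluorescence from Ub-AMC cleavage, excitation 355 nm, emission 460 nm | Benchmarks: Wells without proteasome as full block, compound-free enzyme plus substrate as uninhibited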
# E coli growth = E. coli growth inhibition, primary screen, OD600; Escherichia coli growth, 23 h; stronger effect = lower value; OD600 absorbance (concentration not given with the values); actives 0.21% (n = 330,000);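 active = OD600 absorbance below the run mean of sample wells minus 3.6 SD, in any replicate, cut at about 0.56 in these data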;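 also: stock transfer was 300 nL into about 60 µL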
# * hit, by the source's call.
canonical_smiles	UCH37 inh	E coli growth
N#CC(=C(O)CCl)c1nnc2n1CCCCC2	31*	0.66
CC(=NNc1nc(N2CCCCC2)nc(N2CCOCC2)n1)c1ccccc1O	1.2	0.69
COC(=O)c1ccc(C2Nc3ccc(C(C)=NNC(=O)C(OC)c4ccccc4)cc3C3C=CCC32)cc1 (stereo not given)	5.9	0.73
CC(=NOCC(=O)Nc1ccc2c(c1)OCCO2)c1ccc2c(c1)OCCO2	4.0	0.64
CON=C(c1nonc1N)N1CCN(c2ccc([N+](=O)[O-])cc2)CC1	2.6	0.73
CC(C)(C)NC(=O)C(c1ccco1)N(C(=O)Cn1nnc(-c2ccc(F)cc2)n1)c1ccccc1 (stereo not given)	4.7	0.73
CC(=NOCC(=O)NN=Cc1ccc(C)cc1O)c1cccs1	-5.2	0.68
COc1ccc(CC(=O)NN=C(C)c2ccc(Br)s2)cc1	2.9	0.73
COc1ccc(-c2[nH]ncc2C=NNC(=O)c2cccc([N+](=O)[O-])c2)cc1OC	3.5	0.67
Cc1ccc(S(=O)(=O)NN=C(c2ccccc2)c2cccnc2)cc1	5.4	0.67
CC(=O)n1cc(C=NNC(N)=S)c2ccccc21	6.2	0.71
CC(=NNS(=O)(=O)c1ccc([N+](=O)[O-])cc1)c1cccs1	10	0.67
CC(C)[C@H](N)C(=O)NCC1CCC(C(=O)N[C@@H](Cc2ccccc2)C(=O)O)CC1 (stereo not given in full)	1.1	0.65
NC(=NOC(=O)Oc1ccccc1)c1ccc([N+](=O)[O-])cc1	6.2	0.67
C/C(C=NNC(=O)c1cnccn1)=C\c1ccco1	15	0.62
COc1ccc(C=NNC(=O)c2cc(C)oc2C)cc1OCc1ccccc1	6.1	0.66
O=C1N/C(=N\N=Cc2ccccn2)SC1Cc1cccc(SC(F)F)c1 (stereo not given)	6.1	0.69
COc1ccc(-c2nc(NN=C(C)c3ccc(O)cc3)c3ccccc3n2)cc1	3.9	0.72
Cc1ccc(C=NNc2ccc3c(C(F)(F)F)cc(C(F)(F)F)nc3n2)cc1	3.8	0.72
Cc1nnc(C)n1N=Cc1c(O)ccc2ccccc12	2.5	0.63
O=C(NN=Cc1cccnc1)C(O)c1ccccc1 (stereo not given)	0.5	0.65
Nc1nonc1C(=O)NN=Cc1ccc(Br)o1	12	0.7
Nn1cnnc1NN=Cc1ccccc1C(F)(F)F	5.1	0.66
COc1ccc(Nc2nc(NN=Cc3ccc(N(C)C)cc3)nc(C)c2[N+](=O)[O-])cc1	5.7	0.69
COc1ccc(CC(C)=NNC(=O)c2ccncc2)cc1	2.3	0.72
CC(CC(=O)N(C(C)C)C(C)C)=NNC(=O)c1ccccc1Br	-1.7	0.7
CCC(C)[C@H](NC(=O)OC(C)(C)C)C(=O)NN=CC1=Cc2ccccc2OC1 (stereo not given in full)	-84	0.73
O=C(NN=Cc1ccccn1)C(O)c1ccccc1 (stereo not given)	-1.0	0.64
COc1ccc2c(Cl)c(C(=O)NN=Cc3c(C)[nH]c4ccccc34)sc2c1	-6.7	0.72
COc1cc(OC)c(OC)cc1C=Nn1c(-c2n[nH]c3c2CCC3)n[nH]c1=S	-6.6	0.63
CC(=NNC(=O)C1(C)CC1(Br)Br)c1ccc([N+](=O)[O-])cc1 (stereo not given)	-0.7	0.75
NC(=NOC(=O)Cc1ccccc1[N+](=O)[O-])c1ccncc1	-0.7	0.72
N#CC(=NNc1ccc([N+](=O)[O-])cc1)C(=N)N1CCCCC1	23*	0.62
COc1cc(C(=O)NN=Cc2ccc(OC(=O)c3cccc(C)c3)c(OC)c2)ccc1O	1.6	0.66
COc1ccccc1NS(=O)(=O)c1cccc(C(=O)NN=Cc2ccc([N+](=O)[O-])o2)c1	5.7	0.63
COc1ccc(C(O)=C(C#N)c2nc3ccccc3n2C)cc1OC	9.6	0.73
Fc1ccc(CON=CC2=C(Cl)c3ccccc3CC2)cc1	6.0	0.76
COc1cccc(C=NNc2nnc(C)n2N)c1O	1.8	0.65
Cc1cccc(C=NNC(=O)CC(=O)NCCc2ccccc2)c1	3.6	0.69
COc1ccc(CC(=O)NN=C(C)CC(=O)NCc2ccco2)cc1OC	2.4	0.64
COc1ccc(NC(=O)CC(C)=NNC(=O)c2cccs2)c([N+](=O)[O-])c1	2.9	0.61
Cc1ccc(S(=O)(=O)NN=Cc2c(F)cccc2Cl)cc1	2.1	0.68
CCOc1ccccc1-c1cc(C(=O)NN=C(C)c2cccnc2)c2ccccc2n1	4.4	0.73
N#Cc1ccc(OCC(=O)NN=C2CCc3ccccc32)cc1	-0.9	0.68
COc1cc(C=NNC(N)=S)ccc1OC(=O)c1ccc(C)cc1	5.4	0.67
CCOc1cccc(C=NNC(=O)c2cccnc2)c1O	4.0	0.64
COc1ccc(CC(=O)NN=C(C)c2cccs2)cc1OC	3.3	0.62
NC(=NOC(=O)c1ccccc1F)c1nonc1N	0.0	0.68
COc1cc2c(cc1OC)C1=C(C#N)CCC(=NS(=O)(=O)c3ccccc3)N1CC2	8.6	0.76
O=C(NN=Cc1cccc(O)c1)c1ccc(COc2ccc3c(c2)CCC3)o1	2.6	0.73
Cc1ccc2c(n1)CC(C)(C)CC2=NO	-1.6	0.66
CCn1cc(C=NNC(=O)c2ccc3c(c2)c(C)c(C)n3Cc2ccccc2)c(C)n1	-2.5	0.68
COC(=O)c1nn(-c2ccccc2)c(Cl)c1C=NO	2.5	0.67
CCOC(=O)c1c(CC(C)C)csc1N=CC1C(=O)CC(C)(C)CC1=O	-179	0.66
CC(CC(=O)NC1C2CC3CC(C2)CC1C3)=NNC(=O)Cc1cccs1 (stereo not given)	1.8	0.69
Cn1cc([N+](=O)[O-])c(C(=O)NN=Cc2ccc3c(c2)OCO3)n1	8.7	0.71
CC(=NN1CCN(Cc2ccccc2)CC1)c1ccco1	2.0	0.68
O=C(NN=Cc1cn(-c2ccccc2)nc1-c1ccccc1)c1ccco1	-2.8	0.68
CN(N=Cc1ccco1)C1=NS(=O)(=O)c2ccccc21	-255	0.71
C(=NC(N=Cc1ccco1)c1ccco1)c1ccco1 (stereo not given)	-34	0.7

# Other structures:
canonical_smiles	UCH37 inh	E coli growth
Cc1ccccc1CON=Cc1[nH]ncc1Br	4.1	0.66
O=C(NN=C/C(Cl)=C/c1ccccc1)c1ccc2c(c1)OCO2	0.3	0.66
COc1ccc(C=NN2C(=O)C3C4C=CC(CC4)C3C2=O)c(OC)c1 (stereo not given)	4.8	0.71
Cc1ccc(S(=O)(=O)Oc2ccc(C)cc2C=N/N=C2\NC(=O)C(C)S2)cc1 (stereo not given)	6.8	0.76
CCOc1cc(C=NNC(=O)Cc2ccc(C(F)(F)F)cc2[N+](=O)[O-])c(Br)cc1OC	4.1	0.71
O=C(CNC(=O)c1ccccc1Br)NN=Cc1cc(Br)ccc1O	-0.8	0.63
COc1cc(C=NNC(=O)C(NC(=O)c2ccccc2)c2n[nH]c(=O)c3ccccc23)ccc1OCC(N)=O (stereo not given)	1.4	0.68
COc1ccc(C=NNc2nc(=O)[nH]nc2C)cc1OC	17	0.67
Cn1ncc(Br)c1C(=O)NN=Cc1cccc(OC2CSC2)c1	-0.1	0.65
CCOc1cc(C=NNC(=O)CCCC(=O)NC2CCCCC2)ccc1O	-0.5	0.69
S=c1[nH]nc(-c2n[nH]c3c2CCC3)n1N=C/C=C/c1ccccc1	6.0	0.64
CC(=NNC(=O)c1cccc(S(=O)(=O)N2CCOCC2)c1)c1ccc(C)cc1	-1.4	0.72
COc1ccc(C=Nn2c(-c3n[nH]c4c3CCC4)n[nH]c2=S)cc1	-0.5	0.71
COc1ccc(C=NNC(=O)c2nc(-c3ccccc3)n(-c3ccccc3)n2)c(O)c1	-39	0.69
COc1ccc(C=NNC(=O)CCOc2ccccc2C)cc1OC	2.9	0.67
COc1cc(C(C)=NNC(=S)NC(C)C)cc(OC)c1OC	1.7	0.68
COc1cc(C=NNC(=O)C2COc3ccccc3O2)ccc1O (stereo not given)	-3.5	0.65
COc1ccccc1/C=C/C=NNC(=O)CN1CCN(S(=O)(=O)c2ccc(C)cc2)CC1	6.6	0.66
COC(=O)NN=C(C)c1ccco1	2.0	0.65
Cc1ccc2occ(C=NNC(=O)c3ccccc3O)c(=O)c2c1	-7.1	0.7

# Carrying on.
molecule | UCH37 inh | E coli growth
O=C(NN=Cc1cccnc1)c1ccc([N+](=O)[O-])cc1Cl | 2.7 | 0.7
ON=Cc1ccccc1OCc1ccccc1F | 2.6 | 0.72
C[C@H](NC(=O)OC(C)(C)C)C(=O)NN=CC1=Cc2ccccc2OC1 | -107 | 0.67
CCOC(=O)c1c(N=CC2=C(O)CC(C)(C)CC2=O)sc(C)c1C | -1.9 | 0.64
COC(=O)c1sccc1NN=C(C)c1ccc(F)c(Cl)c1 | -12 | 0.69
COc1ccc2c(c1)c(C(=O)NN=Cc1ccc(Br)cc1)c(C)n2C | 2.6 | 0.66
O=C(NN=Cc1cccs1)c1cc(-c2ccc3ccccc3c2)n[nH]1 | -2.2 | 0.8
COc1cccc(C=NNC(=O)CNC(=O)c2ccco2)c1O | 3.9 | 0.64
CC(=O)Nc1ccc(C(C)=NNc2nc(Nc3ccccc3)nc(N3CCOCC3)n2)cc1 | 2.3 | 0.7
CCOc1cc(C=NNC(=O)c2ccc(C)nc2)ccc1OC(=O)c1ccc(F)cc1 | 5.7 | 0.65
CC(C)c1c(C(=O)NN=Cc2cccc(OCc3ccccc3)c2)nnn1-c1nonc1N | 1.9 | 0.63
COc1ccc(C=NNc2nc(Nc3ccccc3)nc(N3CCCC3)n2)cc1 | 5.2 | 0.69

# Shown as labelled records: three of the compounds above
COC(=O)c1sccc1NN=C(C)c1ccc(F)c(Cl)c1
  UCH37 inh: -12 | E coli growth: 0.69
ON=Cc1ccccc1OCc1ccccc1F
  UCH37 inh: 2.6 | E coli growth: 0.72
COc1ccc2c(c1)c(C(=O)NN=Cc1ccc(Br)cc1)c(C)n2C
  UCH37 inh: 2.6 | E coli growth: 0.66

# Five of the entries above in order of the UCH37 inh value, rising:
SMILES,UCH37 inh
C[C@H](NC(=O)OC(C)(C)C)C(=O)NN=CC1=Cc2ccccc2OC1,-107
CC(=O)Nc1ccc(C(C)=NNc2nc(Nc3ccccc3)nc(N3CCOCC3)n2)cc1,2.3
ON=Cc1ccccc1OCc1ccccc1F,2.6
O=C(NN=Cc1cccnc1)c1ccc([N+](=O)[O-])cc1Cl,2.7
CCOc1cc(C=NNC(=O)c2ccc(C)nc2)ccc1OC(=O)c1ccc(F)cc1,5.7

# Additional entries:
molecule | UCH37 inh | E coli growth
CC(Oc1ccc2ccccc2c1)C(=O)NN=Cc1cccnc1 (stereo not given) | 1.4 | 0.66
COc1ccc(C=NNC(=O)c2ccc([N+](=O)[O-])cc2)cc1COc1c(F)c(F)cc(F)c1F | 4.5 | 0.72
O=C(C[n+]1ccccc1)NN=Cc1ccccc1Cl | 2.8 | 0.72
CC(=NNS(=O)(=O)c1ccc([N+](=O)[O-])cc1)c1c[nH]c2ccccc12 | -1.2 | 0.68
CCCn1c(N=Cc2cc(OC)ccc2O)nc2ccccc21 | -0.7 | 0.68
CC(NC(=O)C(=O)NN=Cc1ccc(Cl)cc1)c1ccccc1 (stereo not given) | 1.5 | 0.67
Cn1c(=O)cc(C(=O)NN=Cc2ccc(Cl)cc2)[nH]c1=O | 7.5 | 0.6
O=C(CNc1cccc(C(F)(F)F)c1)NN=Cc1ccccc1C(=O)O | 2.8 | 0.72
Cc1cccc(OCC(=O)NCC(=O)NN=Cc2c(C)[nH]c3ccccc23)c1 | 6.5 | 0.69
N#CC(=C(O)CN1CCOCC1)c1nc(-c2ccccc2)cs1 | 4.1 | 0.66
O=C(NN=Cc1ccc(O)cc1)c1ccncc1 | 2.4 | 0.65
CCC(=NNC(=O)c1ccc(N(C)C)cc1)c1ccccc1 | 2.5 | 0.7
O=C1C2C3C=CC(C4CC34)C2C(=O)N1N=Cc1c[nH]c2ccccc12 (stereo not given) | 2.6 | 0.68
COc1ccc(C=NNc2ncnc3scc(-c4ccccc4)c23)cc1OC | -7.5 | 0.7
Cc1ccc(C=NNC(=O)c2nnn(-c3nonc3N)c2CSc2ccccc2)s1 | -55 | 0.69
COc1ccc(C=NNC(=O)CNC(=O)c2ccc(S(=O)(=O)N3CCOCC3)cc2)c(OC)c1 | 5.9 | 0.71
Clc1ccc(Cn2cc(C=Nn3cnnc3)c3ccccc32)c(Cl)c1 | 2.0 | 0.78
COc1cc(OC)c(OC)cc1C=NNC(=O)CCc1c(C)n[nH]c1C | -87 | 0.67
Cc1cc(C)c([N+](=O)[O-])cc1-c1ccc(C=Nc2c(-c3ccco3)nc3ccccn23)o1 | 5.3 | 0.67
C/C(C=Nn1c(C2CCCCC2)n[nH]c1=S)=C\c1ccccc1 | 2.9 | 0.66
Nc1nonc1-n1nnc(C(=O)NN=CC2CC=CCC2)c1CSc1ccccc1 (stereo not given) | 5.0 | 0.69
Cc1cccc(C=NN(CCO)C2=NS(=O)(=O)c3ccccc32)c1 | 3.1 | 0.73

# Exported with values under each structure: part of the list above.
# Order of values: UCH37 inh	E coli growth
- COc1cc(OC)c(OC)cc1C=NNC(=O)CCc1c(C)n[nH]c1C
 : -87	0.67
- Cc1cc(C)c([N+](=O)[O-])cc1-c1ccc(C=Nc2c(-c3ccco3)nc3ccccn23)o1
 : 5.3	0.67
- C/C(C=Nn1c(C2CCCCC2)n[nH]c1=S)=C\c1ccccc1
 : 2.9	0.66
- Nc1nonc1-n1nnc(C(=O)NN=CC2CC=CCC2)c1CSc1ccccc1 (stereo not given)
 : 5.0	0.69
- Cc1cccc(C=NN(CCO)C2=NS(=O)(=O)c3ccccc32)c1
 : 3.1	0.73

# High-throughput results as filed in PubChem BioAssay.

# Some of the compounds tested. The share of hits here may be higher or lower than overall.
